# Bioassay records: PubChem BioAssay, several laboratories
# Sa RN4220 lethal = S. aureus RN4220 growth inhibition; OD600, 16 h; inhibition, % (test concentration not listed); hit rate 0.33% among 330,000;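 active = z-score of -3 or lower and OD600 up to 0.18 on both plates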;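 note: plate controls were untreated cells for no effect and reference antibiotic for full effect; stock transfer was 100 nL into about 80 µL; one replicate is shown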
# Mtb hypoxia inh = Mtb hypoxia fluorescent reporter inhibition. fluorescence inhibition, % (test concentration not listed). M. tuberculosis hypoxia-regulated fluorescent reporter, fluorescence. hit rate 0.1% among 300,000;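 active = 35 to 45% if threefold the growth effect, above 45% if 1.5-fold the growth effect; inactive = the rest, general growth blockers included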;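 note: wells of about 50 µL received 100 nL stock; 0% = vehicle wells and 100% = reference inhibitor wells; whole bacteria with a GFP reporter of the hypoxia response; strong numbers were not always called active; many hits fall short of the cut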
# PrP 5UTR inh = suppresses PrP 5' UTR mRNA reporter expression | cell-based PrP 5' UTR mRNA reporter, plate reader | AID 488862 | inhibition, % (test concentration not listed) | hit rate 0.35% among 340,000;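 active = every replicate at 50% or more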;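 note: 0 = median of the neutral control wells; tested in H4 reporter cells; numbers are from one replicate; inactives centre near -14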
# Sa ugtP lethal = kills S. aureus RN4220 lacking UgtP. S. aureus RN4220 ugtP deletion, OD600 growth, 16 h; some inactives read as strong as hits. growth inhibition, % (test concentration not listed). hit rate 0.54% among 330,000. AID 1259309;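 active = z-score under -3 and OD600 up to 0.15 on both plates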;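 note: plate controls were untreated wells for no effect and antibiotic for full effect; wells of about 80 µL received 100 nL stock; the first replicate is given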
# Autofluor counter = compound fluorescence in toxin protease inhibitor counterscreen; compound autofluorescence counterscreen, microsphere flow cytometry; hits give high values; fluorescence intensity (concentration not given with the values); hit rate 3.1% among 360,000;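 active = at least 3 SD above the mean of all compounds, about 16000 in these data; inconclusive = too few beads counted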;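 note: 100 nL of 1 mM stock went into each well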
# BJeLR viability = BJeLR cell viability loss | BJeLR (HRASV12) viability, CellTiter-Glo ATP luminescence, 48 h; reference of the scale not given here | inhibition, % (no concentration beside the values) | hit rate 0.17% among 300,000 | AID 1554;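 active = replicate mean above 50%; inconclusive = above 50% but judged a plate artefact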;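 note: 50 nL library stock added to about 25 µL; numbers are from one replicate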
# Mtb hypoxia inh growth = second read-out of Mtb hypoxia inh, no call of its own (marks repeat the call); growth inhibition, %; measured here: M. tuberculosis growth (absorbance);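 0% = vehicle and 100% = reference antibiotic; read after six days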
# Active calls of the source: *; ? = inconclusive; · = no result given; & = joins results of further samples.
SMILES	Sa RN4220 lethal	Mtb hypoxia inh	Mtb hypoxia inh growth	PrP 5UTR inh	Sa ugtP lethal	Autofluor counter	BJeLR viability
Cn1nc(C(=O)NNC(=O)C(CCC(N)=O)NS(=O)(=O)c2ccc(Cl)cc2)c2ccccc2c1=O (stereo not drawn)	-1.0	9	7	·	2	·	·
COc1ccc(NC(=O)Nc2ccc(C(=O)N3CCOCC3)cc2)c(OC)c1	0.3	2	9	-12	2	2043	-11
Cc1cccc(Oc2coc3cc(OC(=O)c4cccs4)ccc3c2=O)c1	16	·	·	-17	13	4360	1
NC(=O)c1cc(S(=O)(=O)N2CCc3ccccc3C2)cs1	8.2	3	6	-11	6	4383	10
O=C(CN(C(=O)c1csnn1)c1ccc(F)cc1)NCc1ccc2c(c1)OCO2	-2.2	8	2	-19	17	3676	2
Cc1cccc(NC(=O)CN2C(=O)CCS(=O)(=O)c3ccccc32)c1C	1.1	-12	-3	-1	1	5769	-8
CC(=NNC(=O)c1ccc(Br)cc1)C1C(=O)c2ccccc2C1=O	71	16	6	·	53	·	·
Oc1ccc2ccccc2c1CNc1ccc(Br)cn1	-8.5	17	11	-29	5	3912	-6
CCOC(=O)CC1=C(C(=O)OCC)C(c2ccc(C)o2)C(C#N)=C(N)O1 (stereo not drawn)	0.2	·	·	-10	11	4318	-1
O=C(Nc1ccnn1C1CCN(C(=O)Cc2cccc(Cl)c2)CC1)C1CC1	-0.7	0	2	-23	2	4807	4
Clc1nc(CN2CCCCC2)nc2sc3c(c12)CCC3	4.5	-10	6	-27	7	4820	-11
CC1CN(C(=O)c2ccccc2NS(=O)(=O)c2cccc([N+](=O)[O-])c2)CC(C)O1 (stereo not drawn)	3.0	6	0	-18	0	2403	6
OCCC1CN(Cc2ccc(C(F)(F)F)cc2)CCN1Cc1ccccc1 (stereo not drawn)	0.5	11	11	-16	6	4198	5
Cc1ccc(C)c(NC(=O)CCC(=O)N/N=C/c2ccc3c(c2)OCO3)c1	·	·	·	-44	·	?	5
CCn1ncc(NC(=S)NCCc2ccccc2)c1C(N)=O	1.9	5	12	-1	1	4089	-2
O=C(N/C(=C/c1ccccc1)C(=O)N1CCCCC1)c1ccco1	-2.1	-7	3	-4	-6	6131	-6
O=C(CCCn1c(=O)c2sccc2n(CC(=O)OCc2ccccc2)c1=O)NCc1ccco1	3.9	3	2	4	12	12519	-2
Cc1ccnc(NC(=O)CN2C(=O)NC(C)(c3ccc4ccccc4c3)C2=O)c1 (stereo not drawn)	-9.2	-12	-4	-23	-9	?	·
O=C(O)c1ccc(CSc2nnc(-c3ccncc3)n2-c2ccc(Br)cc2)cc1	1.9	-2	14	-33	4	2215	-7
Cc1cc(C(=O)CSc2nnc(-c3ccc(F)cc3)o2)c(C)n1CC1CCCO1 (stereo not drawn)	5.1	10	8	3	-15	2989	-10
CC(C)c1ccc(N(CC(=O)N2CCOCC2)S(C)(=O)=O)cc1	·	·	·	-29	·	3912	-6
Cc1ccc(C(=O)NNC(=O)C(C)Oc2ccc3ccccc3c2)o1 (stereo not drawn)	0.4	-4	-13	-52	8	?	-4
COC(=O)C1C(=O)C2=C(CC1C)NC(=O)CC2c1ccc(F)cc1 (stereo not drawn)	0.7	3	-3	-20	1	4327	-2
O=C(CCC1CCCC1)NC1CCCCC1	-5.6	·	·	5	5	2808	0
O=C(Cn1nnc(-c2ccccc2)n1)N/N=C/c1cccc([N+](=O)[O-])c1	·	·	·	-43	·	10751	-10
CCNC(=O)c1cc2ccccc2o1	13	-4	-3	-26	-1	2461	-2
O=C(CCC(=O)c1ccc(Oc2ccccc2)cc1)Nc1ccc(Cl)cc1Cl	0.5	7	6	-25	2	11727	-8
COc1ccccc1CCNC(=O)C(=O)NCC1OCCCN1S(=O)(=O)c1cc(C)ccc1C (stereo not drawn)	3.0	3	-4	-40	-1	5832	4
CCCN1CCC(=O)N(CCSc2ccc(NC(C)=O)cc2)CC1	1.7	7	9	-10	-6	3695	8
COc1ccc(CC(=O)Nc2ccc(-c3cn4cccc(C)c4n3)cc2)cc1OC	1.7	8	-4	-1	1	2593	-4
CCCN1Cc2cccc(C(=O)Nc3ccc(C)cc3)c2C1=O	1.3	8	12	-19	-6	8859	-1
COc1cccc(C(C(=O)Nc2ccc(F)cc2)N(C(=O)Cn2nnc3ccccc32)C2CC2)c1 (stereo not drawn)	-0.2	11	4	-17	9	8864	-4
COc1cccc(/C=N/NC(=O)C[n+]2ccccc2)c1O	·	·	·	-24	·	2131	1
Cc1ccc(-n2c(SCC(=O)NCc3ccco3)nc3c([nH]c4ccccc43)c2=O)cc1	2.8	9	5	-32	15	4153	14
O=C(c1ccoc1)N1CCCC(CO)(CCCc2ccccc2)C1 (stereo not drawn)	3.7	12	16	-13	2	5209	4
CC(=O)c1ccc(NC(=O)C2=CC(c3ccco3)=NS(=O)(=O)N2C)cc1	2.4	6	12	3	2	6345	2
O=C(CCCCCN1C(=O)c2cccc3cccc(c23)C1=O)NCCO	0.7	14	0	-21	6	4218	1
COc1ccc(OC)c(C(=O)CSc2nnc(Cc3cccs3)n2C)c1	-15	2	-2	-20	-5	3163	4
Cc1ccc2c(C)c(C(=O)N3CCN(C4CCS(=O)(=O)C4)CC3)oc2c1C (stereo not drawn)	4.6	11	3	-7	10	4614	-3
Cn1c(C(=O)Nc2ccc3c(c2)OCCO3)cc2sccc21	0.7	1	11	-154	-4	16792*	11
CCCNC(=S)N1CCN(c2nc(-c3ccc(C)cc3)cs2)CC1	-8.6	10	-6	-32	12	3907	9
COc1ccc(Cc2nnc(NC(=O)Cn3cnc4c3c(=O)n(C)c(=O)n4C)s2)cc1OC	3.2	-4	7	-10	0	2500	-2
CC(C(=O)N1c2ccccc2CCc2ccccc21)n1nnc(-c2ccc(N(C)C)cc2)n1 (stereo not drawn)	-4.6	·	·	-16	-15	3233	-3
CC(=O)Nc1cccc(OCC(=O)Nc2cccc(S(=O)(=O)N3CCCC3)c2)c1	2.5	0	1	-17	5	·	·
COC(=O)[C@@H]1[C@H](CCc2ccccc2)NC(=O)N(Cc2ccccc2)[C@@H]1C	·	·	·	-12	·	3947	1
O=[N+]([O-])c1ccc(Cl)cc1NCC1CCCO1 (stereo not drawn)	5.4	4	-6	-3	3	3051	-7
O=C(Nc1nccs1)c1cc(-c2ccccn2)nc2c(Cl)cccc12	-0.9	-9	-7	-6	-14	5199	1
CCCCOP(=O)(c1ccc(N(C)C)cc1)C(O)c1ccc(N(C)C)cc1 (stereo not drawn)	1.2	3	6	-38	10	3798	-7
Cn1cccc1C(=O)Nc1nc(-c2ccccn2)cs1	8.1	16	13	-29	3	9145	2
Nc1nc(SCC(=O)Nc2cc(S(=O)(=O)N3CCOCC3)ccc2Cl)n[nH]1	1.0	1	-6	-7	2	4096	1
CCN(CC)C(=O)c1cn(C)c(=O)c2cc(OC)c(OC)cc12	0.8	0	5	-13	-6	8700	-2
N#Cc1ccc(C(=O)OCC(=O)Nc2ccc(N3CCOCC3)cc2)cc1	3.9	13	8	-35	23	3795	3
Cc1nnc(SC(C)C(=O)Nc2ccc(S(=O)(=O)N3CCCCC3)cc2)s1 (stereo not drawn)	-1.2	·	·	-7	13	3665	10
CCC(=O)c1cn([C@@H](CCC(OC)OC)CC(=O)OC(C)(C)C)cc1CC	·	·	·	-1	·	3918	11
O=c1[nH]nc(SCCS(=O)(=O)c2ccc(F)cc2)n1-c1ccccc1	4.4	18	15	·	7	·	-12
CC(=O)N(c1ccccc1)c1nnc(-c2cnc(C)cn2)s1	2.6	-5	4	-42	3	4367	11

# Molecules listed so far containing a cyano group (two):
SMILES	Sa RN4220 lethal	Mtb hypoxia inh	Mtb hypoxia inh growth	PrP 5UTR inh	Sa ugtP lethal	Autofluor counter	BJeLR viability
CCOC(=O)CC1=C(C(=O)OCC)C(c2ccc(C)o2)C(C#N)=C(N)O1 (stereo not drawn)	0.2	·	·	-10	11	4318	-1
N#Cc1ccc(C(=O)OCC(=O)Nc2ccc(N3CCOCC3)cc2)cc1	3.9	13	8	-35	23	3795	3

# The list goes on.
SMILES	Sa RN4220 lethal	Mtb hypoxia inh	Mtb hypoxia inh growth	PrP 5UTR inh	Sa ugtP lethal	Autofluor counter	BJeLR viability
O=Cc1c[nH]c2ncccc12	1.3	12	8	-17	3	4102	6
CC(C)[C@H](N)C(=O)OCCOCn1cnc2c(=O)[nH]c(N)nc21	·	·	·	-17&17	·	5964&6219	2
Cc1cc(NC(=O)CN2CCCC2c2nc3ccccc3s2)no1 (stereo not drawn)	3.1	4	7	-5	-5	9219	1
Cc1ccnc(NC(=O)c2cccc(S(=O)(=O)NCc3ccccc3)c2)c1	1.5	-6	-2	-9	0	·	2
CC1(C)Cc2c(cnn2-c2ccccc2)C(NC(=O)CCCN2CCCCC2=O)C1 (stereo not drawn)	2.6	2	-2	-22	9	6203	-7
O=c1[nH]c(CSc2nc3ccccc3[nH]2)nc2c1cnn2-c1ccccc1	5.2	4	7	-6	11	10068	5
COC(=O)/C(=C\Nc1ccc(OC)cc1)NC(=O)c1ccc(Cl)cc1Cl	-14	13	8	-22	-10	3325	1
O=[N+]([O-])c1cccc(-c2ccc(C=NNc3nc(N4CCCCC4)nc(N4CCCCC4)n3)o2)c1	-7.6	19	30	·	-12	·	·
Cn1c(SCC(=O)NC2CCCCC2)nnc1-c1ccncc1	-2.3	-1	-6	-9	2	3187	6
Cc1onc(-c2ccccc2)c1C(=O)N1CCN(S(=O)(=O)c2ccc(Cl)cc2)CC1	-0.3	4	6	-22	6	3659	-7
CC(Sc1nnc(-c2ccco2)o1)C(=O)Nc1ccc(OC(F)F)cc1 (stereo not drawn)	3.2	4	-1	-19	6	7214	·
S=C1NC(c2ccccc2)=NCN1c1ccc(Br)cc1	0.2	3	7	-23	56	10873	2
CCCCN1C(=O)C(NC(=O)C2CC2)(C(F)(F)F)C2=C1CC(C)(C)CC2=O (stereo not drawn)	1.4	-7	5	0	1	9208	-4
CC(=O)C1=C(C)Nc2ncnn2C1c1ccc(Cl)cc1Cl (stereo not drawn)	2.2	·	·	-11	-6	4478	-4
COC(=O)c1ccccc1NC(=O)CSc1nnc(-c2ccoc2C)n1C	4.8	7	7	-7	1	4781	8
O=C(Nc1cccc(Cl)c1)c1cccnn1	·	·	·	-7	·	3484	3
CCOC(=O)c1c(S(=O)(=O)NCC(=O)Nc2cccc(F)c2)c(C)n(C)c1C	1.3	2	4	0	3	3999	3
NS(=O)(=O)c1cccc(NC(=O)COC(=O)CN2C(=O)c3ccccc3C2=O)c1	2.6	9	5	-1	5	3486	·
O=C(COC(=O)c1cccc([N+](=O)[O-])c1)Nc1ncc(Br)s1	0.9	1	3	-10	5	3670	·
Cc1ccc(-c2ccc(C3C4C=CCC(C)C4C(=O)N3Cc3ccccc3)c(F)c2)cc1 (stereo not drawn)	-4.6	-4	0	·	7	·	·
Nc1cc(-c2ccc(Br)cc2)nc2cc(-c3ccccc3)nn12	-2.4	0	3	-21	-15	4810	4
O=C(O)c1ccccc1C(=O)NC1CCCc2ccccc21 (stereo not drawn)	1.5	4	-9	-24	2	3870	1
O=C(c1oc(=O)c2ccccc2c1-c1ccccc1)N1CCN(C2CCCCC2)CC1	2.8	·	·	10	8	5175	-9
O=S(=O)(NC1CCCCC1Oc1ccccc1)c1ccc(Cl)cc1 (stereo not drawn)	8.2	-3	2	-26	4	1885	-1
CC1CC(C)(C)NC(=S)N1CCC(=O)NCCc1ccc(Cl)cc1 (stereo not drawn)	0.5	11	-5	-10	6	3311	-5
COc1ccc(-c2ccc3oc(-c4ccsc4)cc3c2)cc1	9.1	22	11	-67	4	3720	3
Cc1ccccc1NC(=S)c1ccc2ccccc2n1	-6.1	1	-5	-33	20	4494	-6
CC(=O)c1ccc(-c2ccc(C(=O)NCC(c3ccco3)N(C)C)o2)cc1 (stereo not drawn)	8.6	9	10	-32	2	4059	·
